# Assay outcomes as filed in PubChem.
# HTT prom inh: inhibits huntingtin promoter activity | 48,000 tested, 0.93% active | Potency, µM (doses to about 57.5 µM), without a hit: at the top dose activity change, negative = inhibition, usual class: inhibitors | HEK293 HTT promoter firefly luciferase reporter (activity 0% = vehicle and -100% = no light), 24 h; active = well fitted inhibition curve with a large enough effect; inconclusive = small, poorly fitted or top-dose-only effect; inactive = no such curve, though single readings can be large or run the other way; also: nearly all actives have a fitted effect of over 50% in size
#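 HEK293 cells carrying firefly luciferase reporters were seeded at 2,500 per well in Opti-MEM and cultured for 24 h. They were then treated with compounds at up to 57.5 uM final for 24 h at 37 degrees C before Dual-Glo luminescence readout.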
# PMP22 txn: modulates PMP22 transcription in S16 Schwann cells | S16 Pmp22-F2sN Schwann cells (luciferase reporters placed in the Pmp22 gene), FLuc/NLuc coincidence luminescence, 24 h | Potency, µM (highest dose often 57.5 µM), for inactives: at the top dose activity change, negative = inhibition, most hits filed as inhibitors | 43,000 tested, 2% active; active = clear falling dose curves in both reporters; inconclusive = both reporters move, but less clearly or upward; inactive = either reporter flat; the % is the NLuc reporter signal; also: % is scaled to controls: 0 for no effect and ±100 for the full control effect; some results filed as inactive show a strong effect at the top dose
#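 S16(c9) Schwann cells with FLuc/NLuc coincidence reporter in the Pmp22 3' UTR; compounds pin-transferred, 24 h at 37C. Dual-luciferase read: FLuc first, then NLuc after Stop&Glo, each 10 min at room temperature.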
# * hit, by the source's call; ? = inconclusive; / = not tested or not shown; [ ] = another dose, or the depositor's remark. Potency is read from the fitted curve at half-maximal effect.
SMILES,HTT prom inh,PMP22 txn
Cc1cn2c(=O)cc(COc3ccc(NC(=O)c4ccccc4C)cc3)nc2s1,-4%,-23%
O=C1C(c2ccc(F)cc2)N(CCc2ccccc2)C(=O)CN1C1CCCCC1 (stereo unspecified),13%,-20%
CCOC(=O)C1=C(CN2CCCCC2)NC(=O)NC1c1ccc(OC)cc1 (stereo unspecified),-18%,9%
CCCOC(=O)c1c(NC(=O)c2nc3ncccn3n2)sc(C(N)=O)c1C,-3%,-24%
Cc1c(C(=O)NCc2ccccc2Br)oc2ccc3c(c12)C(=O)CC(C)(C)O3,5%,-26%
Cc1ccc(C)c(N2CCN(S(=O)(=O)c3ccc4c(c3)n(C)c(=O)c(=O)n4C)CC2)c1,-9%,-29%
CCOC(=O)c1cc(-c2ccc(OC)cc2)n(CCC(=O)Nc2cccc(C)c2C)c1C,-18%,-7%
COc1ccc(NC(=O)CC2C(=O)N(c3ccccc3)C(=O)N2CCC2=CCCCC2)cc1 (stereo unspecified),?,7%
COC(=O)c1cc(C)nc2c1c(=O)nc(SCc1ccccc1C)n2C1CC1,-33%,?
COc1ccc(CN(Cc2ccco2)c2cnc(S(C)(=O)=O)nc2C(=O)Nc2ccc(C)c(C)c2)cc1,-18%,15%
CO[C@H]1C(=O)[C@]2(C)[C@@H](OC)C[C@H]3OC[C@@]3(OC(C)=O)[C@H]2[C@H](OC(=O)c2ccccc2)[C@]2(O)C[C@H](OC(=O)[C@H](O)[C@@H](NC(=O)OC(C)(C)C)c3ccccc3)C(C)=C1C2(C)C,-16%,/
COc1ccccc1CNC(=O)C1CCN(Cc2nc(-c3ccc(OC)c(OC)c3)oc2C)CC1,-9%,-4%
O=C(Cn1ccc2cc(S(=O)(=O)N3CCCC3)ccc21)NCc1ccccc1Cl,-3%,-2%
COc1cccc(OCC(=O)Nc2nnc3n2CCS3)c1,-5%,-36%
Cc1cc(C)c(NC(=O)c2cc(CN3CCOCC3)on2)c(C)c1,0%,1%
COc1ccc(CCNC(=O)C2CCN(c3nc4ccccc4nc3C(F)(F)F)CC2)c(OC)c1,-9%,?
Cc1ccc(CNC(=O)C2CCN(S(=O)(=O)c3ccc(F)cc3)CC2)cc1,-19%,15%
COc1ccc(Cl)cc1NC(=O)Cn1nnc(C(=O)NCc2cccs2)c1N,?,?
COc1ccc(Nc2nnc(-c3cc4cc(Cl)ccc4oc3=O)s2)cc1,5%,6%
COC(=O)c1cccc(NC(=O)c2nsc3ccccc23)c1,-34%,1%
Cc1ccc(CCNC(=O)c2cc(C)nc3c2c(C)nn3-c2ccc(C)cc2)cc1,-6%,-11%
COc1cccc(CNC(=O)C2CCN(c3nnc(-n4c(C)ccc4C)s3)CC2)c1,-15%,?
CCOC(=O)c1ccc(NC(=O)C(CC)Sc2nc3ncccc3o2)cc1 (stereo unspecified),75%[activator],-18%
Cc1cc(C)c(-c2csc(-c3cc4ccccc4oc3=O)n2)cc1C,-9%[11.5 µM],-15%
CN1C(=O)Cc2cc(S(=O)(=O)CCC(=O)N3CCN(c4cccc(Cl)c4)CC3)ccc21,?,?

# The list goes on:
SMILES,HTT prom inh,PMP22 txn
Cc1noc(/C=C/N(C)C)c1S(=O)(=O)N1CCCC(C(=O)Nc2cccc(F)c2)C1 (stereo unspecified),?,-12%
CCOc1ccccc1CNC(=O)CN(c1ccc(C)cc1)S(=O)(=O)N(C)C,8%,?
COc1ccccc1C(=O)Nc1ccccc1OCc1cc(=O)n2cc(C)sc2n1,3%,-14%
COc1ccc(S(=O)(=O)NCc2ccc3c(c2)CCN3C(C)=O)cc1OC,-18%,-24%
COc1cccc(OCCSc2nc3ccccc3n2CC(=O)N2CCOCC2)c1,-16%,16%
CCOc1ccc(NC(=O)C(C)Sc2nnc3cc(C)c4ccccc4n23)cc1 (stereo unspecified),0%,-14%
COc1cccc(N2CC(NC(=O)/C=C\c3ccccc3)CC2=O)c1 (stereo unspecified),-11%,3%
CCc1cccc(NC(=O)C(Cc2ccccc2)n2cccc2)c1 (stereo unspecified),-27%,-19%
Cc1ccc(-n2c(=O)c3c(cnn3C)n(CC(=O)Nc3cccc(C)c3)c2=O)cc1,9%,2%
Fc1ccc(-n2ncc3c(NCCCn4ccnc4)ncnc32)cc1,17%,?
CCOC(=O)c1c(NC(=O)c2ccc(C)cc2)sc2c1CCCCC2,-11%,-5%
Cn1c(=O)c2c(SCC(=O)N3CCc4ccccc43)nc(-c3ccccc3Cl)nc2n(C)c1=O,17%,-6%
COc1cccc(-c2cn3c(n2)sc2cc(C(=O)NCCc4ccc(OC)c(OC)c4)ccc23)c1,-30%,?
CC(C)C(NS(=O)(=O)c1cccc2cccnc12)C(=O)Nc1ccc(OC(F)(F)F)cc1 (stereo unspecified),-21%,-10%
CCOC(=O)c1oc2c(c1C)-c1nn(Cc3ccc(Cl)cc3)cc1CC2,?,?
CCOc1cc2[nH]c(=O)n(CCCCC(=O)N3CCN(c4ccc(OC)cc4)CC3)c(=O)c2cc1OCC,-15%,-4%
CC1=C(C(=O)Nc2ccccc2)C(c2cccs2)n2nc(SCc3ccccc3F)nc2N1 (stereo unspecified),-10%,-1%
Cc1cccc(-n2c(C)nc3cc(C(=O)NCCC4=CCCCC4)ccc32)c1,13%,-12%
Cc1ccc(-c2nnn3c2nc(NCC(C)c2ccccc2)c2ccccc23)cc1 (stereo unspecified),32%[activator],?
O=C(O)c1ccc(N2C(=O)c3[nH]nc(-c4ccccc4)c3C2c2cccc(F)c2)cc1 (stereo unspecified),-1%,-16%
COc1ccc(NC(=O)Nc2nnc(N(CC(C)C)CC(C)C)s2)c(OC)c1,?,?
Cc1ccc(C(=O)Nc2nnc(S(=O)(=O)N(C)Cc3ccc(F)cc3)s2)cc1,8%,?
O=C(NC1CCCCC1)c1ccc2c(c1)sc1nc(-c3ccccc3)cn12,?,?
CCCCNc1cc(N2CCN(C3CCCCC3)CC2)c2noc3c2c1C(=O)c1ccccc1-3,4%,-26%
CCc1ccc(NC(=O)CSc2nc3nc(C)cc(C)n3n2)cc1,?,?

# New compounds follow.
SMILES,HTT prom inh,PMP22 txn
O=C(c1nc(-c2ccc(Cl)cc2)n2c1CCCCC2)N1CCN(c2ccccc2F)CC1,-16%[11.5 µM],?
CCOC(=O)C1CCN(C(=O)c2cc3ccc4ccc(C)[nH]c4c3n2)CC1,41%[activator],1%
C[C@](Cc1c[nH]c2ccccc12)(NC(=O)OC1C2CC3CC(C2)CC1C3)C(=O)NC[C@H](NC(=O)CCC(=O)O)c1ccccc1 (stereo partly specified),26%,/
COc1ccc(NC(=O)c2cc(S(=O)(=O)N3CCOCC3)cn2C)cc1Cl,-13%,4%
COc1ccc(-n2c(=O)c3c4c(sc3n3c(SCCC(C)C)nnc23)COC(C(C)C)C4)cc1 (stereo unspecified),4%,-1%
CSc1oc(-c2ccc(F)cc2)nc1S(=O)(=O)c1ccc(Br)cc1,-29%,6%
CCCN(C(=O)C1CCN(S(=O)(=O)c2c(C)noc2/C=C/c2ccc(C)cc2)CC1)c1ccccc1F,-25%,1%
CCC(=O)N1CCc2cc(S(=O)(=O)NC(C(=O)NCc3ccccc3Cl)C(C)C)ccc21 (stereo unspecified),-6%,-13%
Cc1cc(C)cc(-n2c(SCC(=O)Nc3cccc(F)c3)nc3c([nH]c4ccccc43)c2=O)c1,-20%,?
COc1ccc(CCNC(=O)CS(=O)(=O)Cc2nc(-c3cccc(Cl)c3)oc2C)cc1OC,-15%,0%
CCOc1ccc(C2C(C(=O)Nc3ccccc3OC)=C(C)Nc3c(C(=O)Nc4cccc(C)c4)cnn32)cc1 (stereo unspecified),-9%,26%
CN(C1CCCCC1)S(=O)(=O)c1ccc2c(c1)c(=O)c(C(=O)NCCc1ccc(Cl)cc1)cn2C,-6%,?
O=C(CCn1c(=O)c2cccn2c2cccnc21)N1CCN(c2cccc(Cl)c2)CC1,-9%,-19%
COc1ccc(C(=O)CCC(=O)Nc2ccc(C)c(Cl)c2)cc1,8%,5%
COc1ccc(N2CCN(C(=O)c3cc(NS(=O)(=O)c4ccc(F)cc4)ccn3)CC2)cc1,-12%,22%
CCN1C(=O)C(Cc2nc3ccccc3c(=O)n2-c2ccc(OC)cc2)c2cc(C)ccc21 (stereo unspecified),-19%,?
COc1ccc(C2C=C(c3cccc(OC)c3)Nc3c(C(=O)Nc4ccccc4)cnn32)cc1 (stereo unspecified),?,?
CCOC(=O)c1ccc(NC(=O)c2c(NCc3sccc3C)sc3c2CCCCC3)cc1,?,?
COc1cccc(Cn2c(=O)n(CC3CCC(C(=O)N4CCCCC4)CC3)c(=O)c3sccc32)c1 (stereo unspecified),?,?
COc1ccccc1-c1noc(CCCC(=O)Nc2cc(C)ccc2C)n1,-3%,4%
CC(NC(=O)CCc1cn(Cc2ccccc2Cl)c2ccccc12)c1ccccc1 (stereo unspecified),?,-20%
Cc1cccc(-c2noc(CN(C(=O)c3ccc(C)c(C)c3)C(C)C)n2)c1,-27%,?
CCSc1ncc(Cl)c(C(=O)Nc2ccc(S(=O)(=O)N(C)c3ccccc3)cc2)n1,?,?
Cc1cccc(NC(=O)Cn2c(=O)n(CCCCCC(=O)NCc3ccc4c(c3)OCO4)c(=O)c3sccc32)c1,-1%,?
COc1ccc(COC(=O)c2[nH]c3c(c2C)C(=O)CC(c2ccc(OC)c(OC)c2)C3)cc1 (stereo unspecified),10µM*,-19%

# Next results.
SMILES,HTT prom inh,PMP22 txn
COc1ccc(CCNC(=O)c2csc3c2CCCCC3)c(OC)c1,-22%,-29%
CCOc1ccc(S(=O)(=O)NCCc2sc3nc(-c4ccc(F)cc4)nn3c2C)cc1,?,?
Cc1ccc2oc(=O)c3cc(C(=O)Nc4ccc(C)c(F)c4)sc3c2c1,1%,15%
O=C(Nc1ccc(Cl)cc1)c1cc2nc(-c3ccc4c(c3)OCO4)cc(C(F)(F)F)n2n1,-7%[11.5 µM],?
Cc1ccc(-n2c(=O)c3c(C)c(C)sc3n(Cc3ccc(F)cc3Cl)c2=O)cc1C,-10%,-6%
Cc1ccc(C(=O)c2cn(Cc3cccc(F)c3)c3nc(C)ccc3c2=O)cc1,-20%,?
NC[C@H](O)c1ccc(O)c(O)c1,?,/
CCOC(=O)N1CCC(NC(=O)c2ccc3c(c2)N(Cc2ccc(Cl)cc2)C(=O)c2ccccc2S3(=O)=O)CC1,?,?
Cc1ccccc1-c1nc(CS(=O)CC(=O)NCCc2ccc(Cl)cc2)c(C)o1 (stereo unspecified),?,-19%
Cc1ccc(S(=O)(=O)N2CCN(Cc3ccc4c(c3)OCO4)CC2)cc1,?,-13%
COc1cccc(NC(=O)CSCn2nnc3c(=O)[nH]c(Cc4ccc(F)cc4)nc32)c1,-1%,-1%
CCC(=O)C1=C(c2ccc(C)cc2)N(C(=O)CC)n2c(nnc2C2CCCCC2)S1,-20%,?
COc1ccc2c(CNCCc3cccs3)c(C(=O)O)n(Cc3cccc(F)c3)c2c1,-23%,-1%
Cc1cccn2c(=O)c(C(=O)NCCc3ccc(Cl)cc3)cnc12,41%[activator],-5%
CCc1ccc(Nc2ncnc3c2cnn3-c2cc(Cl)ccc2C)cc1,-13%,-23%
CCOc1ccc(S(=O)(=O)NCc2cccn2Cc2cccc(C)c2)cc1,-1%,12%
Cc1nn2c(=O)cc(COC(=O)c3cccc(NC(=O)CCc4ccccc4)c3)nc2s1,-3%,-31%

# Quoted from the results shown, 14 compounds:
SMILES,HTT prom inh,PMP22 txn
Cc1cn2c(=O)cc(COc3ccc(NC(=O)c4ccccc4C)cc3)nc2s1,-4%,-23%
O=C1C(c2ccc(F)cc2)N(CCc2ccccc2)C(=O)CN1C1CCCCC1 (stereo unspecified),13%,-20%
CCOC(=O)C1=C(CN2CCCCC2)NC(=O)NC1c1ccc(OC)cc1 (stereo unspecified),-18%,9%
CCCOC(=O)c1c(NC(=O)c2nc3ncccn3n2)sc(C(N)=O)c1C,-3%,-24%
Cc1c(C(=O)NCc2ccccc2Br)oc2ccc3c(c12)C(=O)CC(C)(C)O3,5%,-26%
Cc1ccc(C)c(N2CCN(S(=O)(=O)c3ccc4c(c3)n(C)c(=O)c(=O)n4C)CC2)c1,-9%,-29%
CCOC(=O)c1cc(-c2ccc(OC)cc2)n(CCC(=O)Nc2cccc(C)c2C)c1C,-18%,-7%
COc1ccc(NC(=O)CC2C(=O)N(c3ccccc3)C(=O)N2CCC2=CCCCC2)cc1 (stereo unspecified),?,7%
COC(=O)c1cc(C)nc2c1c(=O)nc(SCc1ccccc1C)n2C1CC1,-33%,?
COc1ccc(CN(Cc2ccco2)c2cnc(S(C)(=O)=O)nc2C(=O)Nc2ccc(C)c(C)c2)cc1,-18%,15%
CO[C@H]1C(=O)[C@]2(C)[C@@H](OC)C[C@H]3OC[C@@]3(OC(C)=O)[C@H]2[C@H](OC(=O)c2ccccc2)[C@]2(O)C[C@H](OC(=O)[C@H](O)[C@@H](NC(=O)OC(C)(C)C)c3ccccc3)C(C)=C1C2(C)C,-16%,/
COc1ccccc1CNC(=O)C1CCN(Cc2nc(-c3ccc(OC)c(OC)c3)oc2C)CC1,-9%,-4%
O=C(Cn1ccc2cc(S(=O)(=O)N3CCCC3)ccc21)NCc1ccccc1Cl,-3%,-2%
COc1cccc(OCC(=O)Nc2nnc3n2CCS3)c1,-5%,-36%
